# VACV mCherry inh: vaccinia inhibition (mCherry reporter); AID 720579; Potency, µM (top dose mostly 36.5 µM), inactives show at the top dose activity change, negative = inhibition, actives largely listed as inhibitors; 310,000 tested, 0.63% active; Vaccinia virus mCherry reporter infection, fluorescence; about a quarter of the inactives have no number; active = well fitted inhibition curve with a large enough effect; inconclusive = small, poorly fitted or top-dose-only effect; inactive = no such curve, though single readings can be large or run the other way; tested in A549 cells; note: nearly all actives have a fitted effect of over 35% in size; inactives centre near -10
# VACV Venus inh: vaccinia inhibition (Venus reporter); Potency, µM (top dose mostly 36.5 µM), without a hit: at the top dose activity change, negative = inhibition, most hits filed as inhibitors; 330,000 tested, 0.46% active; Vaccinia virus Venus reporter expression, fluorescence; AID 720580; active means well fitted inhibition curve with a large enough effect; inconclusive means small, poorly fitted or top-dose-only effect; inactive means no such curve, though single readings can be large or run the other way; tested in A549 cells; note: nearly all actives have a fitted effect of over 30% in size; inactives centre near -10
# * hit, by the source's call; i = inactive; u = inconclusive; x = not tested or not shown; & = joins results of further samples; [ ] = another dose, or the depositor's remark. % is set by controls: 0 for no effect and ±100 for the full control effect; potency is the fitted concentration of half-maximal effect.
mol,VACV mCherry inh,VACV Venus inh
CCCCc1cc(=O)oc2c3c(cc(OCC(=O)N4CCC[C@H]4C(=O)O)c12)OC(C)(C)CC3,-8.1%,-3.0%
CCOC(=O)N1CCC(N2CCN(S(=O)(=O)c3ccc4ccccc4c3)CC2)CC1,-16.7%,-29.9%
CN(NC(=O)c1ccccc1F)c1nc(C(F)(F)F)nc2ccccc12,u,-16.4%
CCCCCCCCCCCCCCCC(=O)Nc1ccn(C2OC(CO)C(O)C2O)c(=O)n1 (configuration not stated),u,u
CC(=O)OC1(c2ccccc2)CC(C(C)(C)C)CN(C(C)(C)C)C1 (configuration not stated),i,-1.0%
Cc1ccc(C(=O)O)cc1NC(=O)c1ccc2c(c1)C(=O)N(c1ccc([N+](=O)[O-])cc1)C2=O,i,-18.9%
O=C(CN1C2=NCCCN2c2ccccc21)c1ccc(Cl)cc1Cl,u,-24.2%
O=C(CSCc1ccc(F)cc1)N1CCN(c2ccc(Cl)cc2)CC1,-21.2%,-19.5%
CCN(CCCNC(=O)c1cc2cc3ccc(C)cc3nc2s1)c1ccccc1,-21.4%,-16.7%
COc1cccc(OCCn2c(-c3ccc(Br)cc3)nc3ccccc3c2=O)c1,4.0%,3.4%
NC(=O)COC(=O)c1cc(S(=O)(=O)N2CCOCC2)ccc1N1CCCCC1,x,-21.3%
C/C(=N\NC(=O)c1nnn(-c2nonc2N)c1CSc1ccc(C)cc1)c1cccs1,-10.2%,-11.6%

# Record cards, as listed above. Order of values: VACV mCherry inh | VACV Venus inh
# `NC(=O)COC(=O)c1cc(S(=O)(=O)N2CCOCC2)ccc1N1CCCCC1` is listed as x | -21.3%
# `CC(=O)OC1(c2ccccc2)CC(C(C)(C)C)CN(C(C)(C)C)C1` (configuration not stated) is listed as i | -1.0%
# `CN(NC(=O)c1ccccc1F)c1nc(C(F)(F)F)nc2ccccc12` is listed as u | -16.4%
# `CCCCc1cc(=O)oc2c3c(cc(OCC(=O)N4CCC[C@H]4C(=O)O)c12)OC(C)(C)CC3` is listed as -8.1% | -3.0%

# Next part.
mol,VACV mCherry inh,VACV Venus inh
Cc1ccc(-c2noc(CSc3nnc(Cc4ccccc4)n3-c3cccc(C)c3)n2)cc1,-11.2%,-9.7%
CCOC(=O)/C(C(N)=NCc1ccco1)=C(/O)c1ccccc1,-22.2%,u
C/C=C/c1ccc(OCC(=O)NCc2ccccc2OC)c(OC)c1,-14.9%,-11.5%
COc1cc(NCCCNC(C)C)c2nccc(C)c2c1,u,-2.8%
COc1ccccc1CNS(=O)(=O)c1ccc(N2CCCCS2(=O)=O)cc1,-10.5%,-19.4%
Cc1ccc(NC(=O)CN2CCN(S(=O)(=O)c3ccc4c(c3)OCCO4)CC2)c(C)c1,-4.5%,-0.5%
CCN1CCN(Cc2c(C)[nH]c3ccc(OC)cc3c2=O)CC1,x,2.5%
CNC(=O)C1CCC(Cn2c(=O)c3sccc3n(CC(=O)NCc3ccc(F)cc3)c2=O)CC1 (configuration not stated),-5.8%,-15.3%
O=C(O)/C=C/c1ccc(O)c(O)c1,i,-5.4%&0.0%
O=C1NCN(c2ccccc2)C12CCN(C(c1ccccc1OC(F)(F)F)c1nnnn1Cc1ccccc1)CC2 (configuration not stated),-15.3%,u
COc1ccc(CC(=O)Nc2ccccc2N2CCCCC2)cc1OC,i,-19.5%
Oc1ccc(C[C@H]2CN([C@@H](Cc3ccccc3)CN3CCCC3CN3C(=S)NC[C@@H]3Cc3ccccc3)C(=S)N2CCc2ccccc2)cc1 (some centres not stated),-24.4%,-13.1%
Cc1cc(C(=O)NC2CCCN(Cc3ccc(Cl)cc3)C2)c(C)o1 (configuration not stated),-4.0%,-22.2%
O=C(O)c1ccc2ncc(NC(=O)c3ccc(F)cc3)c(=O)n2c1,i,1.9%
COc1cc(C(=O)OCc2csc(CC(=O)Nc3ccccc3C)n2)ccc1OCC(C)C,-0.5%,-11.3%
CCN(c1ccccc1)S(=O)(=O)c1cccc(C(=O)O)c1,-6.0%,-13.1%
COc1ccccc1N1CCN(CCCCOc2ccc(F)cc2)CC1,-4.7%,-8.4%
O=C(CN(Cc1ccco1)C(=O)CNS(=O)(=O)c1ccc(F)cc1)NCc1ccco1,-1.0%,-5.1%
COc1ccc(S(=O)(=O)NC2CCCC2)cc1Br,-24.5%,-11.3%
COC(=O)c1ccccc1NC(=O)c1ccc2c(c1)CCN2S(=O)(=O)c1ccc(C)cc1,-10.8%,-13.7%
O=C(NCCC1=CCCCC1)C(=O)NCc1ccncc1,-9.3%,-4.4%
Cc1ccc(SCC(=O)OC(C)C(=O)Nc2ccc(S(N)(=O)=O)cc2)cc1C (configuration not stated),-7.4%,-6.4%
N#Cc1nc(-c2ccc(OCc3ccccc3Cl)cc2)oc1N1CCCCCC1,26.8%,-12.6%
COc1cccc(Nc2cc(C)nc3nc(-c4ccc(Cl)cc4)nn23)c1,-7.0%,-1.3%
Cc1ccc(N(CC(=O)NCc2ccco2)C(=O)CCC(=O)Nc2nccs2)cc1,i,-7.6%
CCCCNCCOCCOc1ccc(F)cc1,x,-1.8%
Cc1cc(C(F)F)n2nc(C(=O)NCc3ccccc3F)nc2n1,x,-8.8%
O=C(NCC(=O)N1CCCCCCC1)c1cccc([N+](=O)[O-])c1,-9.3%,-17.7%
O=C(COC(=O)CN1C(=O)C2CCCCC2C1=O)NC1CCS(=O)(=O)C1 (configuration not stated),i,-2.3%
CCOC(=O)c1ccc(NC(=S)NN2CCOCC2)cc1,-18.6%,-11.3%
COc1ccccc1C(=O)COC(=O)CNS(=O)(=O)c1ccc(NC(C)=O)cc1,2.7%,-11.0%
CCOc1ccc(NS(=O)(=O)c2ccc3[nH]cc(C(=O)NC4CCCC4)c(=O)c3c2)cc1,1.6%,-4.8%
NS(=O)(=O)c1ccc(CCNC(=O)Cc2ccc(S(=O)(=O)N3CCOCC3)s2)cc1,-8.1%,0.1%
O=C(C1CN(C(=O)c2cc3ccccc3o2)c2ccccc2O1)N1CCCCC1 (configuration not stated),i,-15.0%
Fc1ccc(C(CNC(=S)NC2CCCCC2)N2CCOCC2)cc1 (configuration not stated),-4.3%,-14.3%
Cn1/c(=N/N=C/c2ccc(Cl)c([N+](=O)[O-])c2)sc2ccccc21,i,4.4%

# 2 neighbouring entries out of the list so far, quoted:
mol,VACV mCherry inh,VACV Venus inh
Fc1ccc(C(CNC(=S)NC2CCCCC2)N2CCOCC2)cc1 (configuration not stated),-4.3%,-14.3%
Cn1/c(=N/N=C/c2ccc(Cl)c([N+](=O)[O-])c2)sc2ccccc21,i,4.4%

# Additional results follow.
mol,VACV mCherry inh,VACV Venus inh
CCCCn1c(SCC(=O)c2ccccc2)nc2ccsc2c1=O,-28.8%,-22.8%
Cc1cc(N2CC(C(=O)O)CC2=O)ccc1Br (configuration not stated),x,-21.0%
Brc1ccc(-c2noc(COc3ccc4ccccc4c3)n2)o1,i,-0.9%
COc1ccc([C@H]2C[C@@H](n3cc(COC(=O)c4ccccc4)nn3)[C@H](O)CN2CC2CCCCC2)cc1,-3.8%,-22.2%
Cc1ccc(CSc2nnc(-c3ccc4c(c3)OCO4)o2)cc1,x,-4.6%
Cc1ccc(NC(=O)CCCCCC2NC(=O)NC2C)cc1 (configuration not stated),-11.3%,-2.8%
O=C(CCNS(=O)(=O)c1ccccc1C(F)(F)F)NCCCSc1ccccc1,-30.9%,-30.0%
Cn1c(=O)cc(Nc2ccc(Cl)cc2)[nH]c1=O,-5.8%,-1.9%
COc1cc(C(=O)O)ccc1OC(C)=O,i,-3.4%
CCN(CC(=O)Nc1ccc(NC(C)=O)cc1)C(=O)C1CC(=O)N(Cc2ccc(C)cc2)C1 (configuration not stated),i,-11.6%
CC(C(=O)Nc1cc([N+](=O)[O-])ccc1Cl)N1CCN(c2ccc(O)cc2)CC1 (configuration not stated),-6.3%,-10.5%
Cc1cccc(-c2noc(-c3ccccc3C(=O)NCc3ccco3)n2)c1,-11.9%,2.5%
Cc1nnc(SCC(=O)NC2CCCCC2)n1C1CCCCC1,-10.1%,-10.7%
Cc1cccc(-c2nc(SCc3cc(=O)c4c(C)cc(C)cc4[nH]3)n[nH]2)c1,-7.0%,-3.4%
CC1(C)C(c2ccc(Cl)cc2)=[N+]([O-])C2(CCCC/C2=N\O)N1O (configuration not stated),x,1.6%
CC(C)=CCCC(C)CN1CCC(n2nccc2NC(=O)c2cccnc2)CC1 (configuration not stated),-19.1%,-11.2%
Cc1cccc(C(C)C)c1NC(=O)C(NS(=O)(=O)c1cccc2nsnc12)c1ccccc1 (configuration not stated),2.3%,-6.3%
Oc1ccc(C[C@H]2CNCCN2CCCCC2CCCCC2)cc1,u,11.2µM*
CCCS(=O)(=O)c1nc(S(=O)(=O)c2ccc(C)cc2)c(NC(C)c2ccccc2)s1 (configuration not stated),-12.5%,-6.6%
COc1ccc(C(=O)NCc2ccc3c(c2)OCO3)cc1S(=O)(=O)N(C)Cc1ccccc1,i,-16.6%
COCCCn1c(SCC(=O)Nc2ccccc2)nnc1-c1ccncc1,i,-12.4%
COc1ccc(CNC(=O)CN(C(=O)CCC(=O)Nc2nccs2)c2ccc3c(c2)OCO3)cc1,-8.0%,-4.8%
Cc1ccc(C(=O)NC(=S)Nc2cc(-c3nc4ccccc4s3)ccc2C)cc1,x,-13.4%
NCC1O[C@@H](OC2C(N)C[C@H](N)[C@@H](O[C@H]3OC(CO)C(O)C(N)C3O)C2O)C(O)C(O)C1O (some centres not stated),-13.6%,-4.5%
COc1ccc2c(c1)CC(NC(=O)Nc1ccc(NC(C)=O)cc1)CO2 (configuration not stated),-23.2%,-14.5%
Cn1cccc1Cc1nnc(SCC(=O)Nc2ccccc2)n1-c1ccc(F)cc1,-13.6%,-3.4%
Cc1ccccc1CNC(=O)c1ccccc1C(=O)O,-14.0%,-13.8%
CCC(O)(CC)C(=O)NN(C(=O)Nc1csc2c1CCCC2)c1ccccc1,-13.5%,-14.3%
CCN1C(=O)[C@H]2[C@@H](c3ccc(OC)cc3)N[C@]3(CCCN(Cc4ccc(Br)cc4)C3=O)[C@H]2C1=O,-12.3%,-18.0%
CCn1c(=O)cc(SCC(=O)NCc2cccc(Cl)c2)c2ccccc21,-24.9%,-23.1%
COc1ccccc1-c1cnn2c(NC3CCCC3)cc(C)nc12,-8.6%,-13.9%
CCC1(c2ccccc2)NC(=O)N(CC(=O)NNC(=O)COc2ccc(Cl)cc2C)C1=O (configuration not stated),-24.1%,-18.2%
N#Cc1ccc(C(=O)Nc2nc(SCc3ccc(Cl)cc3)n[nH]2)cc1,i,2.7%
OC[C@@H]1CN(Cc2ccco2)C[C@H](n2cnc3c(NC4CCC4)ncnc32)O1,12.5%,8.4%
CN(C)CCNc1nc(-c2ccccc2)c2c(c1C#N)CC(C)(C)OC2,x,-15.1%
CSC[C@H]1CN(Cc2ccccc2)C(=O)[C@@H]1CC(=O)Nc1ccccc1,-11.2%,-12.6%
CCSc1ncc(Cl)c(C(=O)Nc2c(C(=O)c3ccccc3)oc3ccccc23)n1,-10.5%,2.5%
Cc1cccc(OCC(=O)N2CCN(C(=O)CCC3CCCC3)CC2)c1,x,u
COc1cccc(-c2cc(C(F)(F)F)n3nc(-c4ccc(C)cc4)cc3n2)c1,30.7%[activator],u
CC(=O)NS(=O)(=O)c1cccnc1Nc1ccc(Cl)c(Cl)c1,-14.3%,-12.3%
Cc1ccccc1NC(=O)CCn1cnc2onc(-c3ccc(F)cc3)c2c1=O,-3.9%,-20.3%
Cc1cccc(NC(=O)c2ccc(S(=O)(=O)N3CCCCC3C)cc2)n1 (configuration not stated),-49.5%,u
CCc1ccccc1NC(=O)CSc1nc2cc(C(=O)NCC3CCCO3)ccc2c(=O)n1CC1CCCO1 (configuration not stated),0.0%,-11.4%
C#CCOCCOCCOCCNc1nc(N2CCN(C(=O)[C@H](CCCCN)n3cc(CN)nn3)CC2)nc(N2CCN(C(=O)[C@H](CCC(=O)O)n3cc(CN)nn3)CC2)n1,i,0.8%
Cc1noc(C)c1S(=O)(=O)Nc1ccc(C(=O)NCc2ccccc2)cc1,i,-7.3%
Clc1ccccc1CSc1cnnc2ccccc12,-18.4%,-10.3%
O=C(COc1ccccc1Cl)Nc1ccc2[nH]c(=O)[nH]c2c1,-22.8%,-17.4%
O=C(Nc1ccc(Cl)cc1)N1CCC(c2ccccc2)C1 (configuration not stated),31.6%&-9.1%[activator],-13.7%&-13.7%
CN(CC1CCCN(CCc2ccc(Cl)cc2)C1)C(=O)c1ccc2nc[nH]c2c1 (configuration not stated),-21.9%,-14.3%
O=C(NCc1cc(F)ccc1F)C1CCC(=O)N(C2CCCCCC2)C1 (configuration not stated),i,-8.1%
Cn1c(N)nc2ccccc2c1=O,i[7.34 µM],2.7%[7.34 µM]
O=C(NCCCN1CCC(Cc2ccccc2)CC1)C1CC(=O)N(C2CCCCCC2)C1 (configuration not stated),-16.4%,-14.9%
COc1cc(NC(=O)COC(=O)CNC(=O)c2ccc(Cl)cc2)c(C)cc1[N+](=O)[O-],i,-7.0%
O=[N+]([O-])c1cc(F)c(N2CCCCCC2)cc1N1CCNCC1,-13.1%,-15.8%
CCN(C(=O)c1cccnc1SC)C12CC3CC(CC(C3)C1)C2,-10.0%,-4.8%
O=C(O)c1cccc(NC(=S)NC(=O)c2ccc3ccccc3c2)c1,-24.7%,-19.2%

# Bioassay records as filed in PubChem BioAssay.
